ClpP mod = qHTS Assay for Activators of ClpP; 340,000 compounds, 1.9% hits; Potency, µM (highest dose often 57.5 µM), for inactives: top-dose activity change, negative = active; purified B. subtilis ClpP, FRET peptide cleavage, 20 min; AID 651965, 2013; active = well fitted falling curve with a large enough effect; inconclusive = small, poorly fitted or top-dose-only effect; inactive = no such curve, though single readings can be large or run the other way; further: potency means the concentration at half of the fitted maximal effect; the source files actives as falling curves though it sought activators and does not explain the sign; nearly all actives have a fitted effect of over 65% in size; many hits overshoot -100%
Target sequence (P80244 whole entry, looked up): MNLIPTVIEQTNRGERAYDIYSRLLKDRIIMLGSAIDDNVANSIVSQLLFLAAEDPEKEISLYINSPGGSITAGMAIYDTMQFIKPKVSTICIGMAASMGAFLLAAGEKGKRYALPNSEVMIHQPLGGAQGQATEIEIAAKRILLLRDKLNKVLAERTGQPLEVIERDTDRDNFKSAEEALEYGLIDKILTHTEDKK
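ClpP 10 microg/mL final, pH 8 Tris/KCl buffer with BSA, glycerol, Tween-20; compound pinned in; FRET-FV substrate; RT 20 min; Ex320/Em430; ΔFRET vs ADEP 5.8 microM, DMSO, no enzyme.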
Menin-MLL FL inh = qHTS Assay for Inhibitors Targeting the Menin-MLL Interaction in MLL Related Leukemias: Competition With Fluorescein Labeled MLL-derived Peptide. AID 1766, 2009. 290,000 tested, under 10 active. Fluorescence polarization, fluorescein-MLL peptide displacement from menin. FP activity change, % at 61.4 µM; inconclusive = falling polarisation curve, or a change in total fluorescence; inactive = total fluorescence flat and polarisation flat or rising; no compound was filed as active; the % refers to the polarisation; negative = inhibition;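 further: % of control where 0% means no effect; inhibitors lower the polarisation; unlabelled MLL peptide was the positive control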
gsp antag = qHTS for Antagonists of gsp, the Etiologic Mutation Responsible for Fibrous Dysplasia/McCune-Albright Syndrome: qHTS | gsp-mutant cells, cAMP HTRF, 30 min; control for the full effect not named in the record | Potency, µM (highest dose often 76.9 µM), inactives show top-dose activity change, negative = inhibition, actives largely listed as inhibitors | 340,000 compounds, 0.4% hits | AID 624288, 2012; active = falling curve of any shape with a large fitted effect; inconclusive = falling curve, mostly with a smaller effect; inactive = flat or rising curve; cell line not stated here;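 further: intracellular cAMP measured with PDE inhibitor Ro 20-1724 present during compound exposure; potency means the concentration at half of the fitted maximal effect; on the % scale 0 is the no-effect control and ±100 the full control effect; nearly all actives have a fitted effect of over 65% in size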
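HTRF cAMP read-out (cAMP-d2 plus anti-cAMP antibody-K in lysis buffer, 30 min RT). Before lysis, cells are exposed to compounds with […] for 30 min at 37C in DPBS containing Ca/Mg, BSA and Tween 20.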
gsp agonist = qHTS for Agonist of gsp, the Etiologic Mutation Responsible for Fibrous Dysplasia/McCune-Albright Syndrome: qHTS; gsp mutant cells, cAMP HTRF, 30 min; control for the full effect not named in the record; Potency, µM (titrated, usually from 76.9 µM), for the others: at the top dose activation (cAMP increase), hits mostly activators; 340,000 compounds, 0.13% hits; AID 624287, 2012; active = well fitted activation curve with a large enough effect; inconclusive = small, poorly fitted or top-dose-only effect, or another doubt; inactive = no such curve, though single readings can be large or run the other way; cell line not stated here;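 further: phosphodiesterase inhibitor Ro 20-1724 added with compounds to block cAMP breakdown; potency means the concentration at half of the fitted maximal effect; nearly all actives have a fitted effect of over 60% in size; about a fifth of the inactives were tested at one dose only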
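Cells in DMEM/10% FBS with G418 were pretreated with compounds in DMSO plus […] (300 uM stock) for 30 min at 37C. cAMP was measured by HTRF (cAMP-d2 plus anti-cAMP antibody-K) after 30 min at room temperature.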
D2 PAM = Beta-Arrestin HTS for Positive Allosteric Modulators of the Human D2 Dopamine Receptor: Potentiators | D(2) dopamine receptor (Homo sapiens), P14416 | DiscoveRx D2 beta-arrestin cells, luminescence, 90 min; 100% = 57 uM dopamine signal | potentiation, % (test concentration not listed) | 360,000 compounds, 0.23% hits; active = potentiation of 50% or more; inconclusive = 30% to 50%; inactive = 30% or less;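 further: compound concentration not given in the record; tested on top of an EC20 dose of dopamine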
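PathHunter D2 cells, attached overnight at 37 deg C, received compound in DMSO plus dopamine at EC20 (50 nM final) for 90 min at 37 deg C. Beta-arrestin recruitment was read as luminescence after 1 h with detection reagent at ambient temperature.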
Sfp PPTase inh = qHTS Assay for Inhibitors of Bacillus subtilis Sfp phosphopantetheinyl transferase (PPTase) | 4'-phosphopantetheinyl transferase ffp (Bacillus subtilis), Q9F4F7 | Biochemical Sfp PPTase activity, qHTS | Potency, µM, inactives show max response, negative = inhibition, actives largely listed as inhibitors | 310,000 compounds, 3.5% hits | AID 1490, 2009; active means well fitted inhibition curve with a large enough effect; inconclusive means small, poorly fitted or top-dose-only effect, or another doubt; inactive means no such curve, though single readings can be large or run the other way;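 further: the enzyme is Sfp with the accession as filed and its product quenches rhodamine fluorescence; potency means the concentration at half of the fitted maximal effect; 0% = enzyme reaction without inhibitor and -100% = no enzyme wells; top concentration of the series not given in the record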
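Compounds were incubated with enzyme (final 15 nM) for 15 min at room temperature before substrate addition started the reaction. Fluorescence at 525 nm excitation, 598 nm emission was recorded immediately and after 30 minutes.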
TRPV1 PAM = HTS Assay for Compounds that Act as Potentiators of the Vanilloid Receptor 1 | potentiation, % at 8.33 µM | AID 540277, 2011 | 320,000 compounds, 0.02% hits | Transient receptor potential cation channel subfamily V member 1 (Homo sapiens), Q8NER1 | TRPV1-expressing cells, Fluo-8 calcium influx, capsaicin EC20 potentiation; host cell line not named in the record; control for the full effect not named in the record; active means potentiation above 80%; inconclusive means 30% to 80%; inactive means below 30%; further: 0% is about no effect
Target sequence (Q8NER1 whole entry, looked up): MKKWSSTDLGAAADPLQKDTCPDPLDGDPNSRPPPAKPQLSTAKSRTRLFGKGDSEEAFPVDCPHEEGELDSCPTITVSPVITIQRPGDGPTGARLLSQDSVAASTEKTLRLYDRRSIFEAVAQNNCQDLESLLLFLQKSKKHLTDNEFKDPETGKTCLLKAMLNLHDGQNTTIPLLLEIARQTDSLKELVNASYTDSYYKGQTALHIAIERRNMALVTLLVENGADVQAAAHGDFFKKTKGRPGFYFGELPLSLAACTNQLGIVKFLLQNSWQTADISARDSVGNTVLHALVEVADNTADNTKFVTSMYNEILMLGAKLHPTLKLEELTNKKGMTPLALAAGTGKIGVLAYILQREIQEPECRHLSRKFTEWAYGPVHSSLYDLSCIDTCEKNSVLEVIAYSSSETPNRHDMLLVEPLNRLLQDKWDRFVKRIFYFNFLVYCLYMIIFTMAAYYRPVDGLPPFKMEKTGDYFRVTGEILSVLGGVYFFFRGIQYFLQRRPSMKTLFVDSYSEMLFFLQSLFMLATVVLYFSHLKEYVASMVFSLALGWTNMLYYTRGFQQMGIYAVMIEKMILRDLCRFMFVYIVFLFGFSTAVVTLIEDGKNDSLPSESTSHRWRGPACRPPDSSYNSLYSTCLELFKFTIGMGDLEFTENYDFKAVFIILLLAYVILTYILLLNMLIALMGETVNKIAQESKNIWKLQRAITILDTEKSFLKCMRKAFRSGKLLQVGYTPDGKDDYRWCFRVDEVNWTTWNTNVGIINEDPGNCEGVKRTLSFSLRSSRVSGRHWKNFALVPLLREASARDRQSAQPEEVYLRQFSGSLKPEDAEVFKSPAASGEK
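Fluo-8 calcium influx in TRPV1-expressing cells, kinetic read (ex 480/em 520 nm). Compound added and read 3 min for agonist activity, followed by capsaicin at EC20 final and 2 min further read for enhancement.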
Active calls of the source: *; ? = inconclusive; nt = no result given; [ ] = remark or other dose.

Under each structure – ClpP mod | Menin-MLL FL inh | gsp antag | gsp agonist | D2 PAM | Sfp PPTase inh | TRPV1 PAM
Cc1cc(-c2ccccc2)c2c(=O)n(-c3ccccc3)[nH]c2n1
 : -0.7% | 6.8 | -21% | ? | -4 | -14% | -11
CC(=O)Nc1ccc(S(=O)(=O)N(C)CC(=O)Nc2ccc(F)c(F)c2F)cc1
 : -0.8% | nt | -2% | -12% | -1 | nt | -7
Cc1cccc(NC(=O)/C(C#N)=C/c2cn(CC(=O)NCc3ccco3)c3ccccc23)c1C
 : -8.4% | 2.2 | -3% | 19% | -9 | -29% | 4
O=C(CSc1nccc(=O)[nH]1)Nc1ccc2ccccc2c1
 : -2.9% | nt | 3% | -6% | -4 | nt | nt
CCOC(=O)c1cc(S(=O)(=O)NC2CCCCC2)cn1C
 : -1.0% | nt | 5% | 27% | -7 | 19% | 2
Cc1noc(NS(=O)(=O)c2ccc(NC(=O)c3ccccc3NS(=O)(=O)c3ccc(F)cc3)cc2)c1C
 : nt | nt | 6% | -6% | -1 | nt | nt
O=C(CSc1n[nH]c(-c2ccccn2)n1)Nc1ccc(Cl)cc1
 : -2.8% | 3.6 | -3% | -27% | -15 | 6% | ?
O=C(O)c1cc2[nH]c3c(c2cc1Cl)CCCC3
 : nt | -2.3 | -16% | -8% | -5 | 26% | 5
O=C(CN1CCN(C(=O)C2CCCO2)CC1)Nc1cc(C(F)(F)F)ccc1Cl (stereo unspecified)
 : -1.2% | 3.3 | 4% | ? | -10 | 13% | 2
COc1ccc(CN(C(=O)c2nsc(Cl)c2Cl)C(C(=O)NC2CCCC2)c2ccc(C)cc2)cc1 (stereo unspecified)
 : nt | -0.8 | ? | 1%[15.4 µM] | -17 | 5% | 1
COc1ccc(Br)cc1S(=O)(=O)N(CC(=O)N1CCOCC1)c1ccccc1
 : -0.6% | 0.7 | -2% | 15% | -12 | 3% | -5
CC(=O)Nc1ccc(NC(=O)c2c(C)nn(Cc3ccccc3)c2Cl)cc1
 : nt | 1.7 | -1% | 25% | 2 | -3% | 1
CCN(CC)CC(=O)N1c2ccccc2Sc2ccc(Cl)cc21
 : 0.3% | 0.7 | -12% | -11% | -18 | 16% | 0
Cc1noc(C)c1S(=O)(=O)N(CC(=O)N1CCc2ccccc21)c1ccc(C(C)C)cc1
 : 0.9% | 1.7 | 10% | 27% | 0 | 24% | nt
Cc1c(CC(=O)O)c(=O)oc2c(C)c(OCc3nn[nH]n3)ccc12
 : nt | 0.6 | 7% | -3%[15.4 µM] | -10 | -5% | 30
C/C(=C\c1ccccc1)C(=O)NCCN1CCOCC1
 : 1.6% | 0.2 | 7% | -1% | -13 | 6% | -7
O=C(NCC1CCCO1)c1cn(-c2ccccc2)nc1-c1ccc(F)cc1 (stereo unspecified)
 : -2.8% | nt | -11% | 25% | -14 | 2% | 5
O=C1CCCCC1C(=O)c1cn(-c2ccc(Cl)c(Cl)c2)nn1 (stereo unspecified)
 : nt | 3.9 | 5% | -8%[15.4 µM] | -2 | 0% | 0
CCOc1cc(C(=O)OCC(=O)Nc2cccc(C)c2)ccc1OCC(=O)N1CCOCC1
 : -1.8% | 2.2 | 2% | ? | -2 | 7% | 8
CC(=O)Nc1ccc(Cl)c(C(N)=O)c1
 : -0.8% | 3.0 | 0% | 12% | 6 | 13% | -3

Full records from above. Screens in order: ClpP mod | Menin-MLL FL inh | gsp antag | gsp agonist | D2 PAM | Sfp PPTase inh | TRPV1 PAM
O=C(CSc1nccc(=O)[nH]1)Nc1ccc2ccccc2c1 in the list: -2.9% | nt | 3% | -6% | -4 | nt | nt
Cc1noc(NS(=O)(=O)c2ccc(NC(=O)c3ccccc3NS(=O)(=O)c3ccc(F)cc3)cc2)c1C in the list: nt | nt | 6% | -6% | -1 | nt | nt

Going on with the list:
Under each structure – ClpP mod | Menin-MLL FL inh | gsp antag | gsp agonist | D2 PAM | Sfp PPTase inh | TRPV1 PAM
Cc1ccc(NC(=O)CN(C)C(=O)CCSc2ccc(F)cc2)cc1
 : -1.2% | nt | -7% | -18% | -4 | nt | -1
COc1cccc(-n2nnnc2SCC(=O)c2ccc(NC(C)=O)cc2)c1
 : 0.7% | 5.2 | 2% | -63%[inhibitor] | -5 | -1% | -6
Cc1ccc(C)c(S(=O)(=O)N2CCCOC2CNC(=O)C(=O)NCCCN2CCOCC2)c1 (stereo unspecified)
 : -2.1% | nt | 8% | -4%[15.4 µM] | -11 | -4% | -1
Cc1cc(C(=O)COC(=O)c2nccnc2N)c(C)n1C
 : nt | 3.3 | nt | 3%[15.4 µM] | -14 | -17% | 7
O=C(c1ccncc1)N1CCN(c2cc(-c3ccccc3)nc3cc(-c4cccc(Cl)c4)nn23)CC1
 : -28% | nt | nt | ? | 5 | nt | nt
CC(C)CNC(=O)c1cccc(NC(=O)c2ccc(NC(=O)c3ccco3)cc2)c1
 : 20% | 4.0 | 6% | -17% | -9 | -9% | 4
CCOC(=O)C1CCN(Cc2cc(Cl)c3ccccc3c2O)CC1
 : nt | -0.1 | 4% | -19% | 5 | ? | 0
c1ccc(-c2ccc(-c3ccccc3)[nH]2)cc1
 : nt | nt | -6% | 25% | 5 | nt | nt
CC(NC(=O)COC(=O)c1ccc(OCC2CCCO2)cc1)c1ccccc1Cl (stereo unspecified)
 : -2.1% | nt | 5% | -1% | 1 | nt | -17
N#CCc1ccc(NC(=O)Nc2cccc(Cl)c2)cc1
 : -0.6% | 1.9 | -20% | 17% | 3 | 11% | -3
N#Cc1ccc(OCC(O)CN2CCN(C(c3ccccc3)c3ccccc3)CC2)cc1 (stereo unspecified)
 : nt | nt | -2% | ? | -13 | 6% | -9
COc1cc(S(=O)(=O)NCc2ccccc2)ccc1Br
 : ? | 7.2 | 7% | -32% | 5 | 6% | -8
OCCOCCn1c(C(CO)Nc2nc(-c3ccc(F)cc3)cs2)nc2ccccc21 (stereo unspecified)
 : -3.5% | nt | 5% | 3% | -12 | nt | nt
COc1cc(OC)cc(C(=O)Nc2nc(-c3ccccc3)c(-c3ccccc3)o2)c1
 : -25% | 7.9 | -16% | ? | -7 | 4% | -32
CC(=O)Nc1nnc(C2=COCCO2)o1
 : nt | 2.7 | 0% | -7%[15.4 µM] | 4 | -60% | 22
COc1ccc(OC)c(-c2csc(NC(=O)CSc3ccccc3)n2)c1
 : -1.9% | 2.8 | 0% | -1% | 5 | 9% | -37
Cc1ccccc1CC1(CO)CCCN(Cc2cn[nH]c2-c2ccccc2)C1 (stereo unspecified)
 : nt | 2.6 | 2% | 25%[15.4 µM] | -6 | -1% | -1
CCCCCCSc1ccc([C@@H]2[C@@H]3C(=O)N(C)C(=O)[C@@H]3[C@]3(C(=O)OC)CCCCN23)cc1
 : -1.2% | nt | -24% | -16% | -4 | nt | nt
C=CCNC(=O)CSc1nnc(-c2ccccc2Br)n1-c1cccc(C(F)(F)F)c1
 : 3.5% | 1.2 | -2% | 27% | -2 | -1% | -12
CCCCn1c(CNC(=O)CC)nc2ccccc21
 : -0.3% | 0.8 | -5% | -15% | -7 | -4% | 14
Cc1ccc(S(=O)(=O)N2C[C@H]3n4c(=O)ccc(=O)n4C[C@H](OC(=O)NCc4ccco4)[C@@]3(O)C2)cc1
 : -0.1% | nt | nt | -85%[inhibitor] | 3 | nt | nt
CCN1CCN(c2nc(N)c([N+](=O)[O-])c(Nc3ccc(C)cc3)n2)CC1
 : -1.1% | -0.4 | -3% | -33%[inhibitor] | -33 | -4% | 17
C/C(CC(O)c1ccc2ccccc2n1)=N/O (stereo unspecified)
 : -0.5% | -5.2 | 4% | 0% | -2 | 10% | 8
COCC(=O)Nc1sc2c(c1C(=O)OC)CCCC2
 : -20% | 0.3 | -3% | -18% | -7 | -7% | 1
COc1ccc(C(=O)NCCN2CCN(C(=O)c3ccc(OC)c(OC)c3)CC2)cc1OC
 : -0.5% | -0.9 | 13% | -2%[15.4 µM] | -8 | 18% | 1
CCOC(=O)CN1C(=O)C(=O)N(Cc2ccccc2F)C1=O
 : nt | -0.9 | 9% | -5% | -3 | 4% | 7
O=C(CCSc1ccccc1)N1CCOCC1
 : -3.1% | -0.4 | 3% | -43%[inhibitor] | -15 | 13% | 16
c1csc(CNc2ncnc3ccc(-c4ccoc4)cc23)c1
 : nt | 9.5 | nt | nt | nt | -12% | -17
O=C(Nc1ccc(Cl)c(Cl)c1)c1cccc(S(=O)(=O)NCc2cccnc2)c1
 : -1.0% | 1.9 | 28µM* | 7%[15.4 µM] | -7 | 3% | -8
Cc1[nH]c2c(C)cccc2c1CC(=O)O
 : nt | 11 | nt | 16%[15.4 µM] | -19 | -3% | 24
CCOc1cc(C(=O)N(CC)CC(=O)Nc2c(F)cccc2F)ccc1OCC(=O)N1CCCCC1
 : 130% | nt | 10% | ? | 4 | nt | -3
Cc1cc(NS(=O)(=O)c2ccc(NC(=O)c3ccco3)cc2)nc(C)n1
 : 2.1% | 2.1 | -12% | 27% | 3 | 20% | 17
COc1ccc(CN(CC(=O)NCC2CCCO2)C(=O)CNS(=O)(=O)c2ccc(C)cc2)cc1 (stereo unspecified)
 : 2.0% | 0.9 | 3% | -59%[inhibitor] | 5 | 9% | 4
O=C(NCCc1ccccc1C(F)(F)F)C1CCC(=O)N(CCCN2CCCC2=O)C1 (stereo unspecified)
 : nt | -2.6 | 3% | ? | -2 | 4% | 0
Cc1cccc(NNC(=O)c2c(F)cccc2Cl)c1
 : -2.3% | 0.4 | 1% | 6% | -17 | 5% | 2
Cc1c(Cl)cccc1NC(=O)CN(C1CCCCC1)S(C)(=O)=O
 : -2.8% | -1.5 | -1% | ? | -3 | 9% | -2
CCOc1ccccc1N(CC(=O)OC)S(C)(=O)=O
 : -0.7% | 4.9 | 9% | -32%[inhibitor] | -14 | 6% | -6

This is a random part of the collection, and some 5.1% of all compounds hit somewhere here.
